High-throughput results deposited in PubChem by several laboratories.
Beta cell apopt: beta cell apoptosis inhibition; INS-1E cytokine-induced death, ATP luminescence, 48 h; percent of positive-control rescue, neutral wells zero; protection from apoptosis, % (concentration not given with the values); 300,000 tested, 0.8% active; AID 435005;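 active = all replicates at 75% or more, or half of them and the mean; inconclusive = half reach 75% but not the mean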;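 note: 0% = cytokine-treated negative control wells and 100% = positive control rescue; higher means more ATP so stronger rescue from cytokine killing; wells of about 40 µL received 100 nL stock; the first replicate is given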
ALR H2O2 inh: blocks human ALR sulfhydryl oxidase activity. inhibition, % (test concentration not listed). P55789. purified ALR, DTT oxidation, H2O2 HRP-luminol luminescence. 290,000 tested, 3.8% active;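 active = mean and each replicate at 75% or more; inconclusive = only one of the two met; inactive = neither met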;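 note: stock transfer was 7.5 nL into about 7.5 µL; 0% = neutral wells and 100% = wells with inactivated enzyme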
Calb FLC: affects C. albicans growth with fluconazole; C. albicans CaCi-2 (fluconazole-resistant clinical isolate) + fluconazole, Alamar Blue growth, 48 h; AID 1979; growth inhibition, % (concentration not given with the values); 300,000 tested, 0.57% active;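 active = most replicates above 75%; inconclusive = exactly half above 75%; inactive = most below 75%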;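 note: all wells also contain fluconazole at 8 µg/ml as a sub-toxic cotreatment; 0% = median of DMSO wells and 100% = median of geldanamycin control wells; wells of about 8 µL received 7.5 nL stock; the first replicate is given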
T cruzi inh: blocks replication of Trypanosoma cruzi | T. cruzi beta-gal in NIH3T3, luminescence, 90 h | inhibition, % (test concentration not listed) | 300,000 tested, 1.4% active;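 active = mean inhibition across valid replicates above about 55%, limit read from the data; inconclusive = mean below that limit but half or more replicates reach it; inactive = mean below it, under half of replicates reach it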;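 note: signal also drops with host cell toxicity which is not excluded here; 0% = plate median of DMSO wells and 100% = zero luminescence signal; higher percent means less beta-gal luminescence so fewer parasites; stock transfer was 50 nL into about 50 µL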
B2AR ag: activates human beta-2 adrenergic receptor causing internalization | Am2.2-beta2AR cells, FAP receptor internalization, flow cytometry; reference of the scale not given here | response, % (test concentration not listed) | 340,000 tested, 0.43% active;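 active = response above a set limit, near 3 SD of response in nonfluorescent compounds, cut at about 42% in these data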;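 note: stock transfer was 100 nL into about 11 µL; a reference agonist was the positive control; negative values mostly stem from fluorescent compounds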
Bfl-1 A1 inh: inhibitors of the anti-apoptotic protein A1, read as caspase activation; MEF A1-2A-BIM cells, Caspase-Glo 3/7 luminescence, 3 h; percent of clofoctol response, vehicle zero; caspase activation, % (test concentration not listed); 330,000 tested, 0.066% active; AID 2462;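 active = over half of replicate activation scores above 10%, or exactly half above 10 with the replicate mean above 10; inconclusive = replicate mean below 10 yet half the replicates above 10; inactive = over half of replicates below 10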;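 note: wells of about 30 µL received 50 nL stock; many hits fall short of the cut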
LANA-H2A inh: blocks KSHV LANA binding to histone H2A/H2B; 320,000 tested, 0.6% active; cell-free LANA-H2A/H2B peptide, fluorescence polarization; inhibition, % (concentration not given with the values); in the data active = inhibition mostly above about 10%, no sharp cut-off; inactive = mostly below about 6.7%;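 note: stock transfer was 7.5 nL into about 10 µL; 0% = median of vehicle wells and 100% = median of positive control wells; one replicate is shown; the record names a cut of 25% in any replicate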
Target sequence (Q9QR71 whole entry, looked up): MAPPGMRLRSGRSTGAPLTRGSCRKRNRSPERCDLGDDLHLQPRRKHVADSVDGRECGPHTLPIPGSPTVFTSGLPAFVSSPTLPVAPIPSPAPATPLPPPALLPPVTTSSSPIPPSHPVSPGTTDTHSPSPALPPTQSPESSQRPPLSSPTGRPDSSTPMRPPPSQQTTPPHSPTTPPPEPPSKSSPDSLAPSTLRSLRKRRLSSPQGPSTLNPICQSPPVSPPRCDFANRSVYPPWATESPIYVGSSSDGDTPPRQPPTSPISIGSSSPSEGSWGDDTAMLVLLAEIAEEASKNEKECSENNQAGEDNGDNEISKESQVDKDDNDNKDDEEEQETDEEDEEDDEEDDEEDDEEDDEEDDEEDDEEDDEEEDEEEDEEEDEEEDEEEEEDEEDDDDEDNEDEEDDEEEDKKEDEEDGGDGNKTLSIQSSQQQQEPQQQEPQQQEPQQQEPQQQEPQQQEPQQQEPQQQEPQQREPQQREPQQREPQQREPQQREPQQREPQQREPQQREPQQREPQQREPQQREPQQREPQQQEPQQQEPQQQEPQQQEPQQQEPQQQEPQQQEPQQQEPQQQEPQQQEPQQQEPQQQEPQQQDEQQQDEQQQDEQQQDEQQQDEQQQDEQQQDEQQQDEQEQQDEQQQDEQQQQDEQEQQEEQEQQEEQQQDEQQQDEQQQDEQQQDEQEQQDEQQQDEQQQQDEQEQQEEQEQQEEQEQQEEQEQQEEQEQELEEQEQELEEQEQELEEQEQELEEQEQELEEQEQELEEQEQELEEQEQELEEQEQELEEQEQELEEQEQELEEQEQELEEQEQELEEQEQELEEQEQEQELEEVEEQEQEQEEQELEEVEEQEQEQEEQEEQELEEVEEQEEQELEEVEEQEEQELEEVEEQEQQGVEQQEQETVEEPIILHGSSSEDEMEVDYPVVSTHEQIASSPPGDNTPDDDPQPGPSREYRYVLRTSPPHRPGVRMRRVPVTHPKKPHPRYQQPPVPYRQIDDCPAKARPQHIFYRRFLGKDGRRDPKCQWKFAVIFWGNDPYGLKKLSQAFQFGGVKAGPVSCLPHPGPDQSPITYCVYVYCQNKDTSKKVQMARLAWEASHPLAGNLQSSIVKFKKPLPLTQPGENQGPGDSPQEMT
rRNA inh HTS: inhibitors of bacterial rRNA selective over humanized ribosomes | E. coli WT GFP vs humanized-ribosome RFP mutants, fluorescence, 24 h; stronger effect = lower value; DMSO median 0, no signal -100 | GFP signal change (wild-type ribosome), % (no concentration beside the values) | 350,000 tested, 1.6% active;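 active = significant combined selectivity score with lowered wild-type GFP, culture density cut under 30%, mutant RFP and density less affected; inactive = any of these conditions unmet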; note: one replicate is shown; some compounds called inactive have numbers as strong as hits
rRNA inh HTS OD600: second read-out of rRNA inh HTS, no call of its own (marks repeat the call); OD600 change, %; measured here: OD600 growth;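 optical density of the mix in the first replicate; 0 = DMSO median and -100 = no signal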
rRNA inh HTS RFP: second read-out of rRNA inh HTS, no call of its own (marks repeat the call); RFP signal change, %; measured here: RFP humanized mutant strains;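 first replicate; 0 = DMSO median and -100 = no signal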
Numbers without * were called inactive; ? = inconclusive; nt = no result given.

SMILES | Beta cell apopt | ALR H2O2 inh | Calb FLC | T cruzi inh | B2AR ag | Bfl-1 A1 inh | LANA-H2A inh | rRNA inh HTS | rRNA inh HTS OD600 | rRNA inh HTS RFP
O=C(COc1ccc(/C=N/NC(=O)c2cc3ccccc3o2)cc1Br)Nc1ccccc1 | -4 | nt | 2 | 70* | -18 | 27* | 3.3 | nt | nt | nt
Cc1ccc(N2C(=O)CC(n3nc(C)cc3C)C2=O)cc1 (configuration not stated) | 7 | -21 | -1 | 3 | -2 | 0.3 | -2.9 | nt | nt | nt
CC(C)(C)n1nnnc1C(c1ccccn1)N(Cc1ccccc1)Cc1ccc(Cl)cc1 (configuration not stated) | nt | -2 | 9 | 40 | 11 | 1.2 | 0.9 | nt | nt | nt
COc1cccc(CN(C)CC(=O)Nc2ccccc2C(=O)Nc2ccccc2)c1 | nt | 0 | -7 | 21 | -3 | -0.3 | 3.3 | 15 | 6 | 4.3
COc1cc(NS(=O)(=O)c2ccc(C)cc2C)cc(OC)c1OC | nt | 5 | -1 | 2 | 0 | -0.6 | -1.8 | nt | nt | nt
CCOc1ccccc1NC(=S)N1CCC(NC(=O)c2ccco2)CC1 | 6 | nt | -4 | nt | -8 | -0.3 | 1.2 | 13 | 5 | 1.5
COc1ccccc1CCC(=O)Nc1ccc(OC)c(S(=O)(=O)N2CCOCC2)c1 | -5 | nt | nt | nt | -9 | 1.2 | 6.6 | -3 | 6 | 2.1
Cc1cccc2nc(-c3ccco3)c(Nc3ccc4c(c3)OCCO4)n12 | -3 | 95* | 3 | -7 | -9 | 0.9 | 2.7 | -28 | -25 | 4.3
CC(NCC1COc2ccccc2O1)C(=O)NCc1ccccc1 (configuration not stated) | -1 | -11 | 9 | -4 | -5 | -0.3 | 0.2 | 6 | 3 | 0.0
O=C(CSc1nncn1-c1ccccn1)Nc1cccc(Cl)c1 | -5 | 7 | -14 | -4 | -3 | 1.9 | 5.4 | 11 | 13 | 4.7
CC(=O)Nc1ccc(N(C(=O)Cc2cccs2)C(C(=O)NC2CCCC2)c2ccncc2)cc1 (configuration not stated) | -3 | -20 | 3 | 3 | -2 | 0.5 | 0.0 | 1 | 4 | -2.0
CC1(C)CC2(CC(C)(C(=O)CSc3nc4ccccc4s3)OC2=O)C(=O)O1 (configuration not stated) | -6 | 91* | -2 | -3 | 5 | 0.3 | -0.5 | nt | nt | nt
COc1ccc(N(C)C(=O)CCS(=O)(=O)c2cccc3nonc23)c(OC)c1 | 0 | -16 | -4 | 4 | 4 | 1.0 | -1.6 | nt | nt | nt
Cc1ccc(/C=C/C(=O)Nc2cccc3ncccc23)o1 | nt | -2 | 2 | -3 | 0 | -0.9 | -2.9 | 18 | 15 | 11
CCOc1cc(/C=C(\CC(=O)O)c2nc3ccccc3s2)ccc1OC | 4 | 4 | ? | 1 | -2 | 0.6 | 3.8 | -21* | -4.1* | -3.0*
CCCCN(CC)C(=O)CSc1cc(=O)n(C)c2ccccc12 | 1 | nt | -1 | 1 | -13 | 1.6 | -1.3 | nt | nt | nt
COc1ccc(OCC(O)CN2CCCC2)cc1 (configuration not stated) | 2 | -1 | -4 | -15 | -3 | 0.9 | 1.4 | 1 | 6 | -2.1
COC(=O)c1ccc(CNC(=O)C2CCC(=O)N(Cc3ccccn3)C2)cc1 (configuration not stated) | -7 | -16 | 3 | -6 | 5 | -0.4 | -4.1 | 4 | 4 | -4.6
COCCn1c(SCc2ccc(C(=O)OC)o2)nc2ccccc2c1=O | -10 | -28 | nt | nt | -2 | 0.4 | -5.7 | nt | nt | nt
Cc1cccc2c1N(CC(=O)OC(C)C)C(=O)C2=O | -21 | 1 | -1 | -1 | 0 | 0.1 | -0.5 | -6 | -6 | 0.4
N#CC1=C2C=CC=CN2CC1=O | -4 | -4 | ? | -14 | -3 | -0.4 | -0.3 | nt | nt | nt
O=C(Nc1ccccc1Oc1ccccc1)c1ccccc1F | -10 | -6 | 8 | 1 | 6 | 0.4 | 1.1 | nt | nt | nt
COC(=O)c1ccc(OCC2c3cc(OC)c(OC)cc3CCN2C(=O)C2CC2)cc1 (configuration not stated) | 3 | -2 | -18 | -8 | -10 | 0.4 | 4.3 | nt | nt | nt
O=C(COc1ccccc1Br)NC1CCCC1 | 0 | nt | 2 | -4 | 1 | 1.0 | nt | nt | nt | nt
COc1cccc2cc(C(=O)NC(C)c3ccccc3)c(=O)oc12 (configuration not stated) | 0 | 5 | -13 | -6 | 2 | 0.3 | 0.3 | 9 | 3 | -0.2
O=[N+]([O-])c1cccc(-n2nnnc2CN2CCCC2)c1 | 0 | -55 | -14 | -4 | 13 | -0.1 | 0.8 | -3 | 7 | 4.0
Cc1cccc(OCC(=O)Nc2cc(Cl)ccc2-n2cncn2)c1C | 3 | -1 | 6 | -2 | 17 | 0.7 | -0.3 | 1 | -1 | -0.4
CCn1c(O)c(N=NC(=O)CNc2ccc(C)cc2)c2ccccc21 | -2 | 12 | 9 | 4 | -5 | -0.7 | -1.0 | 0 | 1 | -0.2
O=C(C1=C(O)C(=O)N(CCN2CCOCC2)C1c1ccco1)c1cc2ccccc2o1 (configuration not stated) | nt | 17 | 1 | -12 | -2 | 2.1 | -1.3 | -2 | 6 | 0.3
Cc1ccccc1-n1nc2c(c1NC(=O)c1cc3ccccc3oc1=O)CS(=O)(=O)C2 | -2 | -3 | 3 | -7 | nt | -0.1 | -0.3 | nt | nt | nt
O=C(CCN1C(=O)/C(=C/c2cccs2)SC1=S)Nc1cccc(O)c1 | nt | -8 | -1 | 3 | 2 | -0.6 | 0.7 | -21 | -14 | -3.5
CCOc1ccc(CN(C)C(=O)CNC(=O)Cc2cccc3ccccc23)cc1 | -6 | 0 | -10 | -4 | -4 | -0.4 | 0.4 | -2 | -5 | 7.4
CCOc1ccccc1N1CCN(S(=O)(=O)c2ccc(F)c(F)c2)CC1 | 1 | -7 | 12 | 12 | 2 | -0.1 | 0.8 | nt | nt | nt
CC(Cn1cnc2ccccc21)C(=O)O (configuration not stated) | 1 | 1 | 4 | -7 | -2 | -0.3 | -0.2 | 0 | 2 | -2.5
Cc1cc2c3c([nH]c2cc1S(=O)(=O)NCCCOC(C)C)CC(C)(C)CC3=O | 6 | -3 | -2 | 2 | -6 | -0.2 | 0.0 | -6 | -10 | -0.4
O=C(CSC1=NCCS1)N1CCc2ccccc21 | -4 | -4 | -5 | -22 | -5 | 1.0 | -1.9 | nt | nt | nt
O=C(O)c1cccc(NC2=C(Cl)C(=O)c3ccccc3C2=O)c1 | nt | nt | ? | 64* | 15 | nt | nt | -21 | -40 | 5.5
O=C(CC1Nc2ccccc2NC1=O)NCc1cccnc1 (configuration not stated) | -6 | -9 | -6 | -25 | 10 | -0.2 | -0.4 | nt | nt | nt
CCOC(=O)c1sc(NC(=O)CSc2n[nH]c(-c3ccc(Cl)cc3Cl)n2)c(C#N)c1C | -3 | 21 | -12 | -21 | 13 | 0.5 | 6.3 | nt | nt | nt
COc1cc2[nH]c(=S)nc(NCC3CCCO3)c2cc1OC (configuration not stated) | 2 | 14 | 0 | -17 | 2 | -0.4 | -2.9 | 3 | 13 | 2.1
Cc1ccc(S(=O)(=O)N2CC=C(c3ccc(F)cc3)CC2)cc1 | -2 | -1 | -1 | -18 | 2 | 0.4 | -1.2 | nt | nt | nt
Cc1ccc(/C=C/C(=O)NCc2ccccn2)o1 | -7 | -1 | -6 | -11 | -7 | 2.1 | 0.2 | nt | nt | nt
CSc1nnc(-c2ccccc2Cl)n1N | -5 | -1 | 14 | -2 | -1 | 0.6 | 4.4 | nt | nt | nt
O=C(Cc1ccc(Br)cc1)NCCc1ccccc1 | -1 | -9 | -2 | nt | -3 | 0.2 | 3.9 | -14 | 7 | -2.3
CCS(=O)(=O)N1CCCC(C(=O)NCCN2CCC(Cc3ccccc3)CC2)C1 (configuration not stated) | -5 | -18 | -12 | 4 | -14 | -0.5 | 6.7 | nt | nt | nt
CC1Sc2ccc(S(=O)(=O)CCC(=O)NCc3ccc(Cl)cc3)cc2NC1=O (configuration not stated) | 1 | -5 | 0 | -9 | 2 | 0.4 | -0.3 | -5 | -2 | 0.6
Nc1nnc(SCC(=O)NCc2ccc3c(c2)OCO3)s1 | -1 | 4 | 3 | -5 | -2 | 0.0 | -4.7 | nt | nt | nt
CCOC(=O)CSc1nnc(-c2ccco2)n1-c1ccc(C)cc1 | -5 | nt | -7 | 0 | 4 | 0.1 | 0.1 | nt | nt | nt
Cc1nn(C)cc1CN(C)Cc1ccc(OCC(O)CN2CCCCC2)cc1 (configuration not stated) | -1 | -17 | 14 | 4 | 12 | 0.1 | -1.0 | 5 | -1 | -6.4
CN(/C=C/C(=O)C(F)(F)C(F)(F)F)Cc1ccccc1 | nt | 1 | ? | -16 | -1 | -0.7 | 0.4 | nt | nt | nt
Cc1ccc(SCC(=O)NN2C(=O)c3ccccc3C2=O)cc1 | -5 | -4 | -1 | -12 | 1 | -0.7 | 3.7 | 7 | 13 | 1.0
COC(=O)C1=C(CCc2ccccc2)NC(=O)NC1c1ccc(C#N)cc1 (configuration not stated) | -5 | -2 | -6 | -9 | -10 | 0.4 | -1.9 | 6 | -2 | -4.9
Cn1c(CNC(=O)c2ccco2)nnc1SCCOc1ccccc1 | nt | nt | -4 | 8 | 10 | nt | nt | 3 | 4 | -1.0
O=C(CSc1ccc2c(c1)OCCO2)Nc1ccc(Br)cn1 | -5 | -7 | 8 | 1 | -6 | -1.0 | -2.0 | -10 | -20 | -3.5
CCOC(=O)c1cc2occc2n1Cc1c(F)cccc1Cl | 1 | 6 | 6 | 9 | 3 | -0.3 | 3.6 | nt | nt | nt
Cc1noc(C)c1C(=O)Nc1ccccc1N1CCOCC1 | 3 | 0 | nt | nt | -4 | -0.9 | 0.6 | 22 | 8 | 3.7
Cc1ccc(Cn2cccc(-c3nc4ccccc4s3)c2=O)cc1 | -3 | 10 | -10 | 0 | 18 | -0.3 | 0.9 | nt | nt | nt
Cn1c(CN2CCOCC2)c(C#N)c2ccccc21 | -7 | -6 | -11 | nt | -6 | -0.1 | -4.6 | nt | nt | nt
Cc1ccc(S(=O)(=O)NNC(=O)c2ccoc2C)cc1 | -9 | 15 | 0 | 9 | -4 | 0.9 | -0.4 | 13 | 7 | 1.1
CN(c1ccc(C(=O)NCc2ccc3c(c2)OCO3)cc1)S(C)(=O)=O | 7 | 6 | 5 | -11 | -2 | -0.5 | -0.5 | nt | nt | nt
COc1ccc(/C=N/Nc2ccccn2)c(OC)c1OC | 2 | 99* | -1 | 6 | -2 | -0.9 | 2.7 | 3 | 2 | 0.6

Not all compounds are listed; the hit share may differ from the screen's.
